Source: PubChem BioAssay
StopGo reporter = FMDV 2A StopGo reporter, luciferase signal. human cells with a luciferase reporter of 2A StopGo recoding; control for the full effect not named in the record. Potency, µM (highest dose often 57.9 µM), for inactives: top-dose signal change, negative = less light. 410,000 compounds, 1.2% hits; active = well fitted falling curve with a large enough effect; inconclusive = small, poorly fitted or top-dose-only effect; inactive = no such curve, though single readings can be large or run the other way; tested in HEK293T cells; also: % is scaled to controls: 0 for no effect and ±100 for the full control effect; nearly all actives have a fitted effect of over 45% in size; luciferase light after 4 h
RE007 growth inh = less growth of the S. pombe RE007 Vpr strain; S. pombe RE007 Vpr strain, BacTiter-Glo ATP luminescence, 24 h; control for the full effect not named in the record; Potency, µM (titrated, usually from 92.2 µM), inactives show at the highest dose activity change, negative = less growth; 360,000 compounds, 0.21% hits; AID 651644; active = well fitted falling curve with a large enough effect; inconclusive = small, poorly fitted or top-dose-only effect; inactive = no such curve, though single readings can be large or run the other way;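 also: % is scaled to controls: 0 for no effect and ±100 for the full control effect; nearly all actives have a fitted effect of over 50% in size; the assay follows cell death caused by Vpr and the record does not say whether a fall means rescue or toxicity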
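Fission yeast RE007 carrying one integrated HIV-1 vpr copy, seeded at OD 0.01 in PMG+AL medium with 23 nL pinned compound. Grown 24 h at 30 degrees; viability read by BacTiter-Glo luminescence after 5 min.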
SARS PLP yeast = SARS-CoV PLP inhibition in yeast; S. cerevisiae expressing SARS-CoV PLpro, growth rescue; control for the full effect not named in the record; Potency, µM (titrated, usually from 32.9 µM), for inactives: top-dose activity, positive = growth rescue; 330,000 compounds, 0.19% hits; active means well fitted rising curve with a large enough effect; inconclusive means small, poorly fitted or top-dose-only effect; inactive means no such curve, though single readings can be large or run the other way; also: 0% is about no effect; nearly all actives have a fitted effect of over 55% in size; growth read by luminescence after 48 h
Cruzain inh noDet = inhibitors of Trypanosoma cruzi cruzain without detergent. 200,000 compounds, 2.3% hits. P25779. purified cruzain, Z-FR-AMC fluorescence, no detergent. AID 1476. Potency, µM, for inactives: max response, negative = inhibition, usual class: inhibitors;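 also: plate controls were enzyme without inhibitor for no effect and buffer without enzyme for full effect; nearly all actives have a fitted effect of over 40% in size; top concentration of the series not given in the record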
Target sequence (P25779 123-467 limits assumed): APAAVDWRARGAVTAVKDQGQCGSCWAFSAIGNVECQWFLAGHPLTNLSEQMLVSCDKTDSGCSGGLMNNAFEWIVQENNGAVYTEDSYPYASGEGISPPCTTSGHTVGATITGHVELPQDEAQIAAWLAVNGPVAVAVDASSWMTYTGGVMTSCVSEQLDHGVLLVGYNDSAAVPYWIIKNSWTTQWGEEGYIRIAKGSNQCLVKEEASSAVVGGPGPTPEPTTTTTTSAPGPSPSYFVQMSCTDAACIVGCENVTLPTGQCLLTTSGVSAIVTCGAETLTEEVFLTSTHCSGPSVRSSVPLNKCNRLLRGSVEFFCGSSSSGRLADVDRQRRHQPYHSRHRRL
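Purified cruzain at 1.5 nM, pre-incubated 15 min with compound at room temperature in 100 mM sodium acetate pH 5.5, 5 mM DTT, 0.00005% Triton X-100. Reaction started with 2 uM Z-FR-AMC; AMC fluorescence increase over 60 s gives rate.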
NS1 inh = blocks influenza NS1 protein function | 270,000 compounds, 0.4% hits | AID 2326 | S. cerevisiae slowed by influenza A NS1, growth recovery by OD600 | Potency, µM (highest dose often 46.1 µM), for the others: top-dose activity, positive = more growth; active means well fitted rising curve with a large enough effect; inconclusive means small, poorly fitted or top-dose-only effect; inactive means no such curve, though single readings can be large or run the other way; also: nearly all actives have a fitted effect of over 50% in size
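Recovery from NS1-induced slow growth read by OD600 in budding yeast switched to galactose assay medium (pH 6.0, -URA) at 1:100 dilution. Compound 23 nl per well; the matching strain lacking NS1 serves as control.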
LASV entry inh = Lassa virus entry inhibition. 300,000 compounds, 1.2% hits. Potency, µM (top dose mostly 37.9 µM), for inactives: top-dose activity change, negative = inhibition, hits mostly inhibitors. Lassa virus pseudotype entry inhibition, cell reporter; control for the full effect not named in the record; active means well fitted inhibition curve with a large enough effect; inconclusive means small, poorly fitted or top-dose-only effect, or effect the other way; inactive means flat fitted curve, though single readings scatter; tested in HEK293 cells; also: % is scaled to controls: 0 for no effect and ±100 for the full control effect; nearly all actives have a fitted effect of over 50% in size; luciferase read-out
Marburg entry inh = blocks Marburg virus binding to or entry into cells; Potency, µM (doses to about 37.8 µM), for inactives: at the highest dose activity change, negative = inhibition, most hits filed as inhibitors; Marburg virus pseudotyped entry inhibition, cell reporter; control for the full effect not named in the record; about a third of the inactives were read at about 46 µM; 300,000 compounds, 1.8% hits; active = well fitted inhibition curve with a large enough effect; inconclusive = small, poorly fitted or top-dose-only effect, or effect the other way; inactive = flat fitted curve, though single readings scatter; tested in HEK293 cells; about a fifth of its hits are not listed in these tables; also: % is scaled to controls: 0 for no effect and ±100 for the full control effect; luciferase read-out
Cruzain inh Det = inhibitors of Trypanosoma cruzi cruzain with detergent; P25779; 200,000 compounds, 0.43% hits; Potency, µM, for the others: max response, negative = inhibition, most hits filed as inhibitors; purified cruzain, Z-FR-AMC fluorescence, 0.01% Triton;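 also: plate controls were neutral wells for no effect and buffer without enzyme for full effect; nearly all actives have a fitted effect of over 40% in size; top concentration of the series not given in the record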
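Cruzain (1.5 nM) preincubated 15 min at RT with compound in 100 mM sodium acetate pH 5.5, 5 mM DTT, 0.01% Triton X-100. Reaction started with 2 uM Z-FR-AMC; AMC fluorescence (ex 360/em 450 nm) change over 60 s gave rate.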
The depositor's hits bear a star; ? = inconclusive; . = no result given; & = joins results of further samples; [ ] = remark or other dose. Unless noted, calls follow the shape of the dose curve; as a rule, active = well fitted curve in the direction sought with a large enough effect; inconclusive = small, poorly fitted or top-dose-only effect, or another doubt; inactive = no such curve, though single readings can be large; an effect the other way counts as inactive or inconclusive. Potency is read from the fitted curve at half-maximal effect. Not a hit list. About 4.7% of those tested had a hit in this group.

SMILES	StopGo reporter	RE007 growth inh	SARS PLP yeast	Cruzain inh noDet	NS1 inh	LASV entry inh	Marburg entry inh	Cruzain inh Det
CNS(=O)(=O)c1cc(C(=O)NCc2ccco2)ccc1Cl	25%	-20%	-1%	13%	-2%	7%	8%	2.3%
CCc1ccc(S(=O)(=O)N2c3ccc(C)cc3C3CN(C)CCC32)cc1 (stereo unspecified)	-18%	-3%	1%	.	.	?	?	.
COc1ccc(CNc2oc(-c3ccc(COc4ccc(Cl)cc4)o3)nc2C#N)cc1	?	.	.	-16%	.	-1%[46.1 µM]	9%[46.1 µM]	-2.8%
CCc1ccccc1-n1c(SCC(=O)Nc2ccc3c(c2)OCCO3)nc2[nH]ncc2c1=O	?	3%	?	1%	-9%	?	-1%&-12%	-3.6%
COCCNC(=O)C1CCN(S(=O)(=O)N2CCC3(CC2)OCCO3)CC1	6%	-7%	5%	7%	-4%	1%	-7%	1.9%
CCCC(=O)N(c1ccc(OCC)cc1)C1C=CS(=O)(=O)C1 (stereo unspecified)	0%	11%	2%	5%	-3%	?	9%	0.0%
O=C(Cn1cnc2cc([N+](=O)[O-])ccc2c1=O)NCCc1ccc(Cl)cc1	-5%	5%	2%	.	3%	-3%	-4%	.
Cc1cccn2c(=O)c(C(=O)NC(C)c3ccccc3)c(O)nc12 (stereo unspecified)	4%	.	.	-9%	.	.	1%[46.1 µM]	-4.8%
Cc1ccc2nc(COc3ccccc3NC(=O)COc3ccccc3Cl)cc(=O)n2c1	-9%	.	.	-4%	.	14%[46.1 µM]	.	3.1%
CCN(CC(=O)NCc1ccc(F)cc1)Cc1nc2ccccc2c(=O)[nH]1	-13%	-19%	1%	-3%	-1%	-4%	-8%	3.1%
O=C(COc1ccccc1)NC(=S)Nc1cccc(NC(=O)c2ccccc2Cl)c1	17%	6%	-20%	-13%	6%	14%	14%	-28%
O=C1CNC(=O)/C1=C\c1ccc(O)cc1	-15%	15%	-6%	4%	-12%	0%	6%	0.8%
COc1ccc(CNC(=O)CCSCc2ccccc2Cl)c(OC)c1	-17%	-4%	-8%	-9%	-6%	1%	?	-6.0%
CCOCCn1c(CN2CCN(c3ccc(F)cc3)CC2)nc2c1c(=O)n(C)c(=O)n2C	?	13%	-3%	?	-14%	-26%	?	-1.5%
O=C(c1ccccc1)N(Cc1ccc(F)cc1)C1CCS(=O)(=O)C1 (stereo unspecified)	4%	16%	12%	4%	2%	24%	11%	-3.1%
CCCc1cc(=O)n2[nH]c(-c3ccc(C)cc3)cc2n1	-1%	6%	5%	3%	-7%	?	-9%	6.6%
Cc1cc(C)c(NC(=O)CSc2ccc(-c3cccnc3)nn2)c(C)c1	-10%	3%	1%	.	.	-17%[46.1 µM]	1%[46.1 µM]	.
CCOc1ccccc1NC(=O)CN1C(=O)CC(c2ccc(C)c(C)c2)=Nc2ccccc21	53%[activator]	.	.	-10%	.	17%[46.1 µM]	.	-1.5%
O=C(CSc1ncc(-c2ccccc2)[nH]1)Nc1ccccc1	26%	-14%	3%	5%&16%	-4%	1%[46.1 µM]	?	-5.1%&5.2%
COc1ccc(S(=O)(=O)Nc2ccc3c(c2)N(C(C)=O)CCC3)cc1OC	34%[activator]	-6%	-3%	.	.	6%	3%	.
O=C(NCc1ccccc1)c1cccnc1Sc1ccccc1	21%	12%	0%	.	-2%	.	.	.
COC(=O)CN1C(C(=O)c2ccccc2)=C(OC(=O)c2ccc(F)cc2)c2ccccc2S1(=O)=O	-21%	.	.	8%	.	2%[46.1 µM]	-13%[46.1 µM]	-5.9%
C=C(C)Cn1c(CN(C)Cc2ccccc2)nc2c1c(=O)n(C)c(=O)n2C	?	2%	1%	.	-15%	.	.	.
CCOC(=O)c1ccc2nc(CCC(=O)N[C@H](C(=O)OC)C(C)C)c(=O)n(CC)c2c1	2%	1%	-4%	.	.	-27%[46.1 µM]	-15%[46.1 µM]	.
COc1cccc2c1Oc1ncccc1N(C(=O)Nc1cccc(Cl)c1)C2	-17%	.	.	0%	.	?	.	-4.9%
CC(=O)Nc1ccc(C(=O)OCC(=O)NCc2ccccc2)cc1	-17%	14%	0%	.	2%	?	?	.
Cc1ccc(C(=O)NCC(=O)OCC(=O)N(CC(C)C)c2c(N)n(Cc3ccccc3)c(=O)[nH]c2=O)cc1	1%	2%	-7%	.	.	?	5%	.
CCCN1C2CCCC1CC(NC(=O)c1ccccc1F)C2 (stereo unspecified)	-16%	11%	2%	-1%	-2%	7%	25%	-1.5%
Cn1c(=O)c2c(nc(NCCc3ccccc3)n2Cc2ccc(Cl)c(Cl)c2)n(C)c1=O	-18%	.	.	-7%	.	-3%[46.1 µM]	-14%[46.1 µM]	-3.1%
CCOc1ccc(CN2CCC(Cc3ccccc3)CC2)cc1	-7%	-22%	0%	.	-20%	.	.	.
COc1ccc(OC)c(CCNc2nc3ccccc3c3nc(-c4cccnc4)nn23)c1	-8%	.	.	-4%	.	.	16%[46.1 µM]	0.4%
Cc1ccccc1CNC(=O)Cc1ccccc1[N+](=O)[O-]	36%[activator]	-8%	12%	13%	0%	?	?	-4.4%
CCCCCOc1ccc(/C=C/C(=O)Nc2sc(C(C)=O)c(C)c2C(=O)OCC)cc1OC	?	.	.	-5%	.	11%[46.1 µM]	.	-0.4%
CCOc1ccc(NC(=O)N[C@@H](CCSC)C(=O)OC)cc1	25%	17%	-1%	7%	6%	0%	1%	-2.2%
O=S(=O)(c1ccc(Br)cc1)c1nc(-c2cccs2)oc1SCc1ccccc1F	39%[activator]	.	.	?	.	-7%[46.1 µM]	-12%[46.1 µM]	-5.5%
Cn1cccc1/C=N/NC(=O)c1cccnc1	.	-6%	1%	-11%	10%	4%	22%	-9.0%
CCn1c(-c2ccccc2)csc1=Nc1ccc(O)cc1	-15%	9%	-1%	.	.	?	-25%	.
Cc1ccc(-n2ncc3c2CCCC3NC(=O)CSc2ccccn2)cc1C (stereo unspecified)	0%	7%	-7%	.	4%	?	-10%	.
COC(=O)c1ccc2c(=O)n(NC(C)=O)c(=S)[nH]c2c1	-12%	1%	1%	7%	8%	9%	22%	-3.1%
CCOC(=O)C1CCN(C(c2ccc(F)cc2)c2sc3nc(-c4ccco4)nn3c2O)CC1 (stereo unspecified)	-19%	.	.	?	.	-52%[46.1 µM]	.	-3.7%

Reprinted from the part before: two compounds, then new ones.
SMILES	StopGo reporter	RE007 growth inh	SARS PLP yeast	Cruzain inh noDet	NS1 inh	LASV entry inh	Marburg entry inh	Cruzain inh Det
COC(=O)c1ccc2c(=O)n(NC(C)=O)c(=S)[nH]c2c1	-12%	1%	1%	7%	8%	9%	22%	-3.1%
CCOC(=O)C1CCN(C(c2ccc(F)cc2)c2sc3nc(-c4ccco4)nn3c2O)CC1 (stereo unspecified)	-19%	.	.	?	.	-52%[46.1 µM]	.	-3.7%
c1ccc(-c2cn(-c3ccccc3)c3ncnc(N4CCCCC4)c23)cc1	?	33%	0%	.	.	?	?	.
C=CCn1cnc2scc(-c3ccc(C)c(C)c3)c2c1=O	-1%	14%	-1%	.	-12%	.	.	.
O=[N+]([O-])c1c(NCCO)cc(N2CCN(Cc3ccc4c(c3)OCO4)CC2)c2nonc12	-20%	15%	21%	?	3%	?	?	-6.4%
Cc1cc(C)nc(SCc2nc(N)nc(-c3ccccc3O)n2)n1	-22%	9%	-3%	28%	-13%	-11%	?	-0.9%
CCOC(=O)c1c(NC(=O)CN2CCOCC2)sc(C(=O)NC)c1C	-2%	-3%	1%	-1%	-4%	-4%	-9%	-0.5%
O=C(CN1C(=O)c2cccc3cccc(c23)C1=O)N1CCCCC1	-25%	4%	-10%	-23%	3%	-12%	3%	-3.7%
COc1cccc(OC)c1OCCN1CCCC1	-20%	2%	-1%	.	-3%	.	.	.
Cc1ccc(NC(=O)c2cc(NC(=O)c3ccccc3C(=O)O)ccc2N2CCCCC2)cc1	9%	9%	-1%	.	14%	0%[46.1 µM]	-1%[46.1 µM]	.
COc1ccc2c(C#N)c3ccccn3c2c1	20%	9%	-1%	.	1%	.	.	.
Cc1c(C(=O)c2ccccc2)c(=O)n(C)c(=O)n1C	7%	6%	-2%	.	.	.	-4%[46.1 µM]	.
COc1ccc(NC(=O)CSc2nnc(C(C)C)n2N)cc1	2%	-11%	7%	-8%	1%	6%	25%	-2.3%
CC(=O)N1CCN(CC(=O)Nc2ccccc2C(=O)NCc2ccc(C)cc2)CC1	-12%	-22%	-3%	.	0%	?	?	.
O=S(=O)(Nc1nc2ccccc2nc1N1CCN(c2ccccn2)CC1)c1ccc(Cl)cc1	-5%	-10%	-32%	?	-48%	.	.	5.0%
CCN(CC)CCNc1nc(-n2nc(C)cc2C)nc2sc3c(c12)CC(C)(C)OC3	1%	-8%	-1%	.	-8%	7.9µM*	?	.
Cc1cc(S(=O)(=O)NCc2ccc(S(N)(=O)=O)cc2)c(C)s1	2%	24%	-2%	0%	5%	2%	9%	-1.6%
COc1ccc(-n2nc(C(=O)NCC(=O)Nc3cc(C)ccc3OC)c3ccccc3c2=O)c(OC)c1	-3%	-5%	-1%	.	29%	6.3µM*	2%[46.1 µM]	.
O=C(Nc1cccc([N+](=O)[O-])c1)C12CC3CC(C1)CC(n1cnc([N+](=O)[O-])n1)(C3)C2	-16%	18%	-7%	-9%	-2%	-2%	1%[46.1 µM]	-0.4%
O=C(CCNC(=O)C1CCN(S(=O)(=O)c2ccc(F)cc2)CC1)NCc1ccncc1	-22%	0%	-3%	.	6%	.	.	.

Copied from the list.
`O=[N+]([O-])c1c(NCCO)cc(N2CCN(Cc3ccc4c(c3)OCO4)CC2)c2nonc12` – NS1 inh: 3%
`Cc1cccn2c(=O)c(C(=O)NC(C)c3ccccc3)c(O)nc12` (stereo unspecified) – Cruzain inh Det: -4.8%
